HNF4A DNA FP = change in binding of human HNF4 alpha to DNA | P41235 | HNF4a-FITC DNA binding, fluorescence polarization, 1 h | activity change, % at 10 µM | 360,000 tested, 0.3% active | AID 1224865; in the data active = activity change above about 30%, passing the limit was not always enough;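 note: controls were the assay level and a saturating level of protein; the project sought stronger binding though the title names inhibitors; some compounds called inactive have numbers as strong as hits; positive values seem to mean higher polarization but the record does not say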
Target sequence (P41235 whole entry, looked up): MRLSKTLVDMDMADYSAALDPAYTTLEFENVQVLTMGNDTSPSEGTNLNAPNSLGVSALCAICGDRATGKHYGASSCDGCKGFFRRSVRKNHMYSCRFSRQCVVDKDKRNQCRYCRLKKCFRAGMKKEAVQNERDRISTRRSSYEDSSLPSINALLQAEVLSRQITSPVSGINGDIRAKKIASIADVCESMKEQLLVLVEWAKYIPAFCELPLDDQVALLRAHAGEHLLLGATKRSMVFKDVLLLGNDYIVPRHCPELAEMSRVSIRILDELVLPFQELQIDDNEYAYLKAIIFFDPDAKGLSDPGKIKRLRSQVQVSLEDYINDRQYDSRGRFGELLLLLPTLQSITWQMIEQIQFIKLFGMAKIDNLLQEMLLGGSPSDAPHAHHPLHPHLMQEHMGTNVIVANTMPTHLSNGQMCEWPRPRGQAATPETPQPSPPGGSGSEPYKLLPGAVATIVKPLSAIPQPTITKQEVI
Vif A3G = HIV-1 Vif–A3G interaction blockers – biochemical, TR-FRET, GST-Vif 1-94, biotin-A3G peptide, dose response retest, primary screen (AID 1117319). TR-FRET GST-Vif / biotin-A3G peptide binding; higher % means a stronger effect; test concentration not given here; strong numbers were not always called active. inhibition, %, or IC50 in µM where a hit was titrated. 260,000 tested, 0.57% active;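 active = above the screen mean plus three standard deviations and confirmed in dose response; inconclusive = results disagree or hit not tested in dose response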;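 note: Vif residues 1-94 fused to GST binding biotinylated APOBEC3G peptide 110-148; 0% = full assay without inhibitor and 100% = GST in place of GST-Vif; retest series ran down from 100 µM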
* hit, by the source's call; ? = inconclusive. Some of the compounds tested. The share of hits here may be higher or lower than overall.

SMILES	HNF4A DNA FP	Vif A3G
Oc1ccc(/C=N/Nc2nccnc2Cl)cc1	0.1	0%
COC(=O)[C@@]1(Cc2ccc(OC)cc2)[C@@H]2C(=CC(=O)[C@H]2CC(=O)C(=O)N2CCCC2)CN1C(=O)c1ccccc1	9.0	23%
CC(=O)Nc1ccc(NC(=O)C(C)O/N=C/c2cccc([N+](=O)[O-])c2)cc1 (stereo unspecified)	1.7	10%
CC(C)O/C(=N\S(=O)(=O)c1ccc(Cl)cc1)c1ccccc1	0.2	17%
Cc1nc(C)c(C(=O)N/N=C/c2c[nH]c3ccccc23)s1	-1.7	7%
O=C(CCl)N1c2ccccc2Sc2ccc3ccccc3c21	2.6	-3%
Oc1ccc(Cl)cc1/C=N/c1nccs1	-1.4	2%
COC(=O)C1=C(C)N=c2s/c(=C/c3cccs3)c(=O)n2C1c1cccs1 (stereo unspecified)	14	16%
Cc1ccc(S(=O)(=O)N2C[C@H]3N(C(=O)OC(C)C)N(C(=O)OC(C)C)C[C@H](OC(=O)NCC4CCCCC4)[C@@]3(O)C2)cc1	-2.1	6%
Cc1cc(/C=C2\SC(=S)N(Cc3ccco3)C2=O)c(C)n1-c1cccnc1	120	-2%
O=[N+]([O-])c1cccc(/C=N/n2c(COc3ccccc3)n[nH]c2=S)c1	6.7	3%
N#C/C(=N\Nc1ccccc1F)C(=N)N1CCCCC1	0.8	0%

A second format for part of the listing above.
| compound | HNF4A DNA FP | Vif A3G |
| --- | --- | --- |
| Cc1nc(C)c(C(=O)N/N=C/c2c[nH]c3ccccc23)s1 | -1.7 | 7% |
| O=C(CCl)N1c2ccccc2Sc2ccc3ccccc3c21 | 2.6 | -3% |
| Oc1ccc(Cl)cc1/C=N/c1nccs1 | -1.4 | 2% |
| COC(=O)C1=C(C)N=c2s/c(=C/c3cccs3)c(=O)n2C1c1cccs1 (stereo unspecified) | 14 | 16% |
| Cc1ccc(S(=O)(=O)N2C[C@H]3N(C(=O)OC(C)C)N(C(=O)OC(C)C)C[C@H](OC(=O)NCC4CCCCC4)[C@@]3(O)C2)cc1 | -2.1 | 6% |
| Cc1cc(/C=C2\SC(=S)N(Cc3ccco3)C2=O)c(C)n1-c1cccnc1 | 120 | -2% |

Other records:
SMILES	HNF4A DNA FP	Vif A3G
O/N=C1/CCCCC1c1ccccn1 (stereo unspecified)	3.8	19%
CC(/C=N/n1cnnc1)=C\c1ccco1	-6.0	?
O=S(=O)(N/N=C/c1ccc(OC2CSC2)cc1)c1ccccc1	-2.6	?
Cc1ccc(Oc2ccc(NC(=O)Cn3ccsc3=N)cc2)cc1	5.3	-5%
O=c1[nH]c2cc3c(cc2cc1C(c1nnnn1C1CCCC1)N1CCCc2ccccc21)OCCO3 (stereo unspecified)	2.9	0%

Full records as entered above.
Cc1ccc(Oc2ccc(NC(=O)Cn3ccsc3=N)cc2)cc1 as listed: HNF4A DNA FP: 5.3; Vif A3G: -5%
O=S(=O)(N/N=C/c1ccc(OC2CSC2)cc1)c1ccccc1 as listed: HNF4A DNA FP: -2.6; Vif A3G: ?

Source: PubChem (several laboratories)
